RecA splice inh – Mtb RecA intein splicing inhibitors, primary screen, biochemical, fluorescence, HTS; actives 0.75% (n = 290,000); Protein RecA (Mycobacterium tuberculosis (strain ATCC 25618 / H37Rv)), P9WHJ3; AID 2221, 2009; inhibition, %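 (about 9 µM by stock and volumes)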; cell-free RecA intein splicing; in the data active means inhibition above about 30%; inconclusive means no clear call, values can overlap the other calls;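 further: 0% = vehicle wells and 100% = reference inhibitor control wells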
Target sequence (P9WHJ3 whole entry, looked up, canonical isoform): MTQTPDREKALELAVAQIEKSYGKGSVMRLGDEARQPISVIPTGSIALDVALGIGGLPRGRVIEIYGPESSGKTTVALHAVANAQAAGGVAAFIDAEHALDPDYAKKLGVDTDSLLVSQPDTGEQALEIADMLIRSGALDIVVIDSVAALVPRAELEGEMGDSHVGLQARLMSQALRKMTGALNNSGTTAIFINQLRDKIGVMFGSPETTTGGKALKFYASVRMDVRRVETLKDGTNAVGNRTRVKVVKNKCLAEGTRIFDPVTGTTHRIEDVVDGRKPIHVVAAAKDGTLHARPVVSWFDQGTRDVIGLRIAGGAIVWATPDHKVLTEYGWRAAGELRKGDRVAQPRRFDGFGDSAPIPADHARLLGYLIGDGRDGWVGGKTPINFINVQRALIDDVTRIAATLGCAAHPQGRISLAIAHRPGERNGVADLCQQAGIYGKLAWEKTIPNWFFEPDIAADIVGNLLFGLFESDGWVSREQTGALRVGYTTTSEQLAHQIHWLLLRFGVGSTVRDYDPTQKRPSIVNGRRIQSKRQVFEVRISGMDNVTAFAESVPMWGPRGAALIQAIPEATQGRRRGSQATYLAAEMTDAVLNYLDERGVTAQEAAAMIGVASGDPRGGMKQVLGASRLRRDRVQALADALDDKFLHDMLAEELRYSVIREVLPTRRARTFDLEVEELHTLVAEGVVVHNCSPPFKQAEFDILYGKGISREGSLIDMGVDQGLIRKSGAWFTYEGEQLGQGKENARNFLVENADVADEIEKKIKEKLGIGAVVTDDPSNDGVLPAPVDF
Mtb bLac sens – beta-lactam sensitization of Mtb H37Rv, H37Rv; M. tuberculosis H37Rv growth with meropenem, percent inhibition; hits of this screen are not shown here; inhibition, % at 25 µM; actives 0.27% (n = 330,000);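 active means about 74% or more and at least 40 points above the plate without the antibiotic, then above 30% in a dose series; inconclusive means first-round hits that could not be retested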;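 further: growth measured after seven days incubation then overnight dye step; 0% = bacteria only wells and 100% = bacteria with antibiotic; twin plates without the antibiotic show which effects depend on it; some results filed as inactive read as strong as hits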
Mtb growth – M. tuberculosis H37Rv growth inhibitors, H37Rv strain (AID 1626). M. tuberculosis H37Rv growth inhibition; higher % means a stronger effect. one-dose inhibition, % at 10 µM; IC50 in µM for titrated hits. actives 0.95% (n = 220,000);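 active means confirmed in a dose series; inconclusive means inhibition above 80% but not taken into the dose series; inactive means below 80% or under 30% at every dose of the series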;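 further: bacteria incubated seven days before Alamar blue readout; 0% = bacteria only wells and 100% = bacteria with antibiotic wells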
YopH inh – YopH tyrosine phosphatase inhibitors, primary screen, biochemical, fluorescence Ex485/Em525; inhibition, %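 (about 10 µM by stock and volumes)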; actives 0.16% (n = 140,000);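 active means inhibition of 50% or more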;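 further: controls were vehicle for no effect and minimum signal wells for full effect; inactives centre near -20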
Arbovirus inh – antivirals against arbovirus infection, primary screen, cell-based, full library, 10K replicate subset; inhibition, % at 10 µM; arbovirus infection cell-based antiviral screen; AID 1251, 2008; actives 0.37% (n = 200,000);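 active means inhibition from about 30%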;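 further: bluetongue infection of BSR cells; cell survival read as ATP light after 72 h; 0% = infected wells without compound and 100% = uninfected wells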
Arbovirus inh repeat – also measured in Arbovirus inh; calls as there; inhibition, %; measured here: 10K subset replicate screen; many hits read low in the repeat;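 first of two repeat runs on a subset; 0% = infected and 100% = uninfected wells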
An asterisk follows results filed as active; u = inconclusive; x = not tested or not shown. This is a subset, so the mix of outcomes need not match the whole.

SMILES | RecA splice inh | Mtb bLac sens | Mtb growth | YopH inh | Arbovirus inh | others
S=C(NCCC(c1ccccc1)c1ccccc1)Nc1ccc(Cl)cc1 | 2.6 | -1 | 9% | -25 | -37
Cc1ccc(C)c(NC(=S)N(C)C)c1 | 0.7 | 23 | -11% | x | x
Cc1noc(C)c1CSCC(=O)N(C)CC(=O)Nc1cccc(F)c1 | 1.3 | 13 | x | x | x
CCN(CCCNC(=O)CC(C(=O)N1CCc2ccccc21)n1ccnc1)c1ccccc1 (configuration not stated) | 2.6 | -7 | -11% | -17 | 2
CC(=O)N1CCN(Cc2nc3cc(NC(=O)c4cccs4)ccc3n2C)CC1 | 2.4 | 1 | x | x | x
CCc1ccc(-c2nc(CSCC(=O)NC3CC3)c(C)o2)cc1 | 1.9 | 13 | x | x | x
COc1ccc(-c2noc(CCCC(=O)NC3CCCC3)n2)cc1 | 5.9 | 5 | x | x | x
CCCC(=O)C1=C(N2CCCC2)CC(C)(C)C(C(=O)OC)C1=O (configuration not stated) | -0.1 | 1 | 9% | x | x
Cc1nn(Cc2c(Cl)cccc2Cl)c(Cl)c1/C=N/NC(=O)c1cccnc1 | 5.5 | -8 | -4% | -3 | -3
CCC(C)N1C(=O)/C(=C/c2ccc3c(c2)CCN3CCCCl)C(=O)NC1=S (configuration not stated) | 1.9 | 5 | 2% | -9 | -11
CCCCOC(=O)CSc1nc2c(c(=O)[nH]c(=O)n2C)n1C/C=C(\C)Cl | -5.2 | -1 | 7% | -33 | 6
O=C(NCc1ccco1)c1ccc(CS(=O)(=O)Cc2ccc(F)cc2)o1 | 2.9 | -12 | 0% | 0 | 3
O=C(c1cnn2c(C(F)(F)F)cc(-c3ccc4c(c3)OCO4)nc12)N1CCCCC1 | -21 | 4 | -12% | -34 | -4
Cc1ccsc1/C=N/NC(=O)Cc1ccc([N+](=O)[O-])cc1 | -0.4 | -6 | x | x | x
O=[N+]([O-])c1ccc(NCCCO)c(S(=O)(=O)N2CCOCC2)c1 | 2.4 | 0 | -4% | x | 4
Cc1ccc2nc(NC(=O)CSCC(=O)OCC(=O)c3ccccc3)sc2c1 | 3.7 | 57 | -10% | -36 | 7
CC(=O)c1ccc(NC(=S)NNC(=O)c2ccncc2)cc1 | 0.9 | 97 | u | -20 | -4
CCc1ccc(C2C(C(=O)O)c3ccccc3C(=O)N2C)cc1 (configuration not stated) | 0.1 | 3 | -6% | 5 | 3
NNc1nc2c(-c3ccc(F)cc3)nnn2c2ccccc12 | -12 | -3 | 1% | x | 3
CCOC(=O)C1CCCN(C(c2ccccn2)c2c(C)[nH]c3ccccc23)C1 (configuration not stated) | 0.6 | 2 | 5% | x | -6
Cc1ccc(-n2ncc3c2CC(C)(C)CC3NC(=O)C2CCOCC2)cc1 (configuration not stated) | 2.4 | -15 | x | x | x
COc1ccc(CN2C(=O)CS/C2=N/N=C/c2ccccc2)cc1 | -0.1 | 42 | -1% | x | x
COc1ccccc1-n1c(SCC(=O)O)nc2c(sc(=S)n2-c2ccc(C)c(C)c2)c1=O | -44 | 10 | x | x | x
Cc1cc(=O)n2nc(N3CCCC(C(=O)NC4CCCCC4C)C3)sc2n1 (configuration not stated) | -1.6 | -2 | x | x | x

Looked up by compound from above, two records:
SMILES | RecA splice inh | Mtb bLac sens | Mtb growth | YopH inh | Arbovirus inh | others
O=C(c1cnn2c(C(F)(F)F)cc(-c3ccc4c(c3)OCO4)nc12)N1CCCCC1 | -21 | 4 | -12% | -34 | -4
Cc1ccc2nc(NC(=O)CSCC(=O)OCC(=O)c3ccccc3)sc2c1 | 3.7 | 57 | -10% | -36 | 7

The list goes on.
SMILES | RecA splice inh | Mtb bLac sens | Mtb growth | YopH inh | Arbovirus inh | others
CCOc1ccc(NC(=O)n2ncc3c(C)cccc32)cc1 | 0.0 | 77 | x | x | x
COCCCNS(=O)(=O)c1ccc(C)cc1 | -2.3 | 0 | 2% | x | 7
O=[N+]([O-])c1ccc(N2CCN(Cc3ccccc3)CC2)c(S(=O)(=O)N2CCOCC2)c1 | -1.8 | -2 | 2% | -42 | 8
Clc1ccc(CSc2nnnn2-c2ccc3c(c2)OCO3)c(Cl)c1 | -2.5 | 4 | 12% | -34 | -3
CCC1C(=O)CC(c2ccc([N+](=O)[O-])cc2)NC1c1ccc([N+](=O)[O-])cc1 (configuration not stated) | 3.2 | 7 | -4% | x | -4
O=C1NC2(CCCCC2)C(=O)N1CCS(=O)(=O)Oc1ccccc1 | -2.0 | -6 | 1% | 16 | 3
Oc1ccc(Cl)cc1/C=N/c1nc2ccccc2[nH]1 | -2.6 | u | -5% | -22 | 2
O=C1CC(N2CCN(c3ccccc3)CC2)C(=O)N1c1ccc2c(c1)OCO2 (configuration not stated) | -1.7 | -2 | 1% | x | 7
O=C(NCC1CCCO1)c1cc2n(n1)C(C(F)(F)F)CC(c1ccc(F)cc1)N2 (configuration not stated) | 1.6 | 1 | -12% | -9 | 5
O=C1CC(N2CCC(O)CC2)C(=O)N1c1ccc(Br)cc1 (configuration not stated) | 1.0 | -13 | -6% | -11 | 1
Cn1c(SCc2ccccc2)nnc1-c1c[nH]c2ccccc12 | -4.7 | 4 | 15% | -43 | 6
O=C(COC(=O)Cc1ccc(Br)cc1)Nc1c(F)c(F)c(F)c(F)c1F | -0.4 | 4 | 0% | -10 | 1
Cc1cccc(C)c1OCC(=O)Nc1ccc2c(c1)OCCO2 | 2.7 | 3 | x | x | x
COc1ccccc1OCC(=O)N1CCN(C(=O)COc2ccccc2OC)CC1 | -1.0 | 4 | x | x | x
Cc1ccc(N(C(=O)c2csnn2)C(C(=O)NC2CCCCC2)c2ccco2)cc1 (configuration not stated) | 1.2 | 0 | x | x | x
Cc1cccc(C(=O)Oc2ccc(/C=N/NC(=O)Cc3ccc([N+](=O)[O-])cc3)cc2)c1 | 0.3 | 2 | 4% | -13 | 2
Cc1ccc(C(=O)N2CCN(c3ccc(NC(=S)NC(=O)Cc4ccccc4)cc3)CC2)cc1 | 1.2 | 99 | u | -42 | 4
Cc1ccc(OC(=O)c2ccc(Cl)c([N+](=O)[O-])c2)cn1 | 30 | 100 | x | x | x
O=C(CN1CCc2cc3c(cc2C1)OCCCO3)Nc1ccc(S(=O)(=O)N2CCCC2)cc1 | 0.6 | -4 | x | x | x
CCCCn1ccnc1C(=O)c1cccc(S(=O)(=O)N2CC(C)CC(C)C2)c1 (configuration not stated) | 12 | 12 | -2% | 2 | 7
Cc1nnsc1S(=O)(=O)Cc1ccccc1C(F)(F)F | -2.8 | -3 | 5% | x | 6
CCc1c(-c2ccccc2)nc(N)c(C#N)c1-c1cccs1 | 4.7 | 2 | -1% | 3 | -1
COc1ccc(NC(=O)NC(C(F)(F)F)C(F)(F)F)cc1 | -1.7 | -4 | 1% | 0 | -3
COc1ccc(S(=O)(=O)NNC(N)=S)cc1 | 1.0 | -8 | -6% | x | 15
O=C(Nc1nnc(SCCC2OCCO2)s1)C1CC(=O)N(c2ccccc2)C1 (configuration not stated) | 0.2 | 37 | x | x | x
O=C(c1ccco1)N1CCN(Cc2nc(Cc3ccccc3)no2)CC1 | 0.0 | -9 | -9% | x | 4
Cc1ccc(C2SCC(C(=O)O)N2C(=O)c2ccc(F)cc2)cc1 (configuration not stated) | -0.2 | -5 | -21% | -15 | -1
Cc1nc(-c2ccc(S(=O)(=O)Nc3ccc(Br)cc3Cl)s2)cs1 | 5.6 | 7 | -3% | x | x
Cc1csc(NC(=O)C2CCCN2C(=O)Oc2ccccc2)n1 (configuration not stated) | -2.3 | -13 | -3% | -27 | 8
Cc1nn2cnc3sc4c(c3c2nc1=O)CCCC4 | -0.1 | -2 | -6% | -7 | -2
COc1ccc2oc(C(=O)OCC(=O)Nc3cccc(S(=O)(=O)N4CCOCC4)c3)c(C)c2c1 | -2.1 | -3 | x | x | x
O=C(COc1ccccc1)Nc1nc(-c2cccs2)cs1 | 9.3 | -4 | -6% | -2 | 10
CCOc1cc(/C=C2\SC(=S)N(NS(=O)(=O)c3ccc(C)cc3)C2=O)ccc1O | 4.0 | -8 | x | x | x
Cc1ccc(C(=O)N/N=C/c2sc(=O)n(Cc3cccc(C(=O)O)c3)c2Cl)cc1 | 4.8 | -12 | -3% | -9 | 7
CCOc1ccc2c(c1)c(C(C)=O)c(C)n2Cc1ccco1 | -0.9 | -17 | -5% | x | 1
COc1ccccc1/C=C/C=N/NC(=O)c1ccco1 | -0.1 | -2 | -4% | x | x
Cc1ccccc1C(=O)Nc1c2c(nc3ccccc13)CCCC2 | 0.1 | 1 | -4% | -23 | -9
OC(COc1ccc2ccccc2c1)Cn1cncn1 (configuration not stated) | 1.8 | -3 | -5% | 35 | 5
CC1CCN(c2nc(/C=C/c3ccccc3)nc3ccccc23)CC1 | 1.6 | 85 | 10µM* | -32 | -38
CCOc1ccc(NC(C)=O)cc1 | -6.3 | -11 | x | x | x
CCSC1=NCCN1C(=O)c1c(-c2ccccc2Cl)noc1C | 0.2 | -7 | 2% | x | -6
C/C1=C\CCC2C(/C=C(\C)CC1)OC(=O)C2CN1CCCCC1 (configuration not stated) | 0.6 | 3 | x | x | x
O=C(CCN1C(=O)c2ccccc2C1=O)NCc1ccc(F)cc1 | -0.5 | 0 | x | x | x
O=C(CSc1n[nH]c(=O)[nH]c1=O)c1ccc(Cl)cc1Cl | 0.6 | 3 | -11% | x | x
NC(=S)NNC(=O)/C(=C/c1ccc(Br)cc1)NC(=O)c1ccccc1 | 3.3 | 4 | 9% | x | 15
COc1cc(NC(=O)c2nccnc2C(=O)O)cc(OC)c1 | 2.3 | 4 | -4% | -29 | 2 | Arbovirus inh repeat=0
COc1ccc(NCc2ccsc2)cc1 | -4.7 | -1 | x | x | x
CCOC(=O)c1cn(-c2c(C)n(C)n(-c3ccccc3)c2=O)c2c(F)c(F)c(F)cc2c1=O | 0.5 | -3 | -4% | x | x

A draw from above in order of molecular weight, smallest number first:
SMILES | RecA splice inh | Mtb bLac sens | Mtb growth | YopH inh | Arbovirus inh | others
OC(COc1ccc2ccccc2c1)Cn1cncn1 (configuration not stated) | 1.8 | -3 | -5% | 35 | 5
Cc1ccccc1C(=O)Nc1c2c(nc3ccccc13)CCCC2 | 0.1 | 1 | -4% | -23 | -9
C/C1=C\CCC2C(/C=C(\C)CC1)OC(=O)C2CN1CCCCC1 (configuration not stated) | 0.6 | 3 | x | x | x
O=C(CCN1C(=O)c2ccccc2C1=O)NCc1ccc(F)cc1 | -0.5 | 0 | x | x | x
CC1CCN(c2nc(/C=C/c3ccccc3)nc3ccccc23)CC1 | 1.6 | 85 | 10µM* | -32 | -38
CCSC1=NCCN1C(=O)c1c(-c2ccccc2Cl)noc1C | 0.2 | -7 | 2% | x | -6
NC(=S)NNC(=O)/C(=C/c1ccc(Br)cc1)NC(=O)c1ccccc1 | 3.3 | 4 | 9% | x | 15

Returning to the listing with the two entries that preceded the break.
SMILES | RecA splice inh | Mtb bLac sens | Mtb growth | YopH inh | Arbovirus inh | others
COc1ccc(NCc2ccsc2)cc1 | -4.7 | -1 | x | x | x
CCOC(=O)c1cn(-c2c(C)n(C)n(-c3ccccc3)c2=O)c2c(F)c(F)c(F)cc2c1=O | 0.5 | -3 | -4% | x | x
C=CCn1c(SCC(=O)NCCCC(=O)OCC)nc2scc(-c3ccco3)c2c1=O | 0.2 | -1 | 6% | x | 24
CC(NS(=O)(=O)c1ccc(Cl)cc1)C(c1cccs1)N1CCN(C)CC1 (configuration not stated) | 0.9 | 3 | 1% | 36 | -13
O=C(Nc1cccc(-c2cccc(F)c2)c1)C1CCN(C2CCC2)CC1 | -0.3 | -3 | x | x | x
CS(=O)(=O)N(CC(=O)Nc1ccc(S(=O)(=O)N2CCCC2)cc1)c1cccc(F)c1 | -0.8 | 0 | 3% | x | x
O=C(Nc1ccc(-c2ccc(N3CCCCC3)nn2)cc1)c1ccco1 | 1.7 | 76 | x | x | x
Cc1ccc(C)c2[nH]c(=O)c(CCNC(=O)CC(C)C)cc12 | -0.3 | -3 | -2% | -10 | 8 | Arbovirus inh repeat=-2
COc1ccc(C(=O)NC2CCCc3c2cnn3-c2ccccc2F)cc1OC (configuration not stated) | 0.7 | 3 | x | x | x

Of the compounds above, four have bromine:
SMILES | RecA splice inh | Mtb bLac sens | Mtb growth | YopH inh | Arbovirus inh | others
O=C1CC(N2CCC(O)CC2)C(=O)N1c1ccc(Br)cc1 (configuration not stated) | 1.0 | -13 | -6% | -11 | 1
O=C(COC(=O)Cc1ccc(Br)cc1)Nc1c(F)c(F)c(F)c(F)c1F | -0.4 | 4 | 0% | -10 | 1
Cc1nc(-c2ccc(S(=O)(=O)Nc3ccc(Br)cc3Cl)s2)cs1 | 5.6 | 7 | -3% | x | x
NC(=S)NNC(=O)/C(=C/c1ccc(Br)cc1)NC(=O)c1ccccc1 | 3.3 | 4 | 9% | x | 15
